Cruzain inh Det: inhibitors of Trypanosoma cruzi cruzain with detergent. P25779. purified cruzain, Z-FR-AMC fluorescence, 0.01% Triton. Potency, µM, for inactives: max response, negative = inhibition, hits mostly inhibitors. 200,000 tested, 0.43% active. AID 1478;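 further: plate controls were neutral wells for no effect and buffer without enzyme for full effect; nearly all actives have a fitted effect of over 40% in size; top concentration of the series not given in the record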
Target sequence (P25779 123-467 limits assumed): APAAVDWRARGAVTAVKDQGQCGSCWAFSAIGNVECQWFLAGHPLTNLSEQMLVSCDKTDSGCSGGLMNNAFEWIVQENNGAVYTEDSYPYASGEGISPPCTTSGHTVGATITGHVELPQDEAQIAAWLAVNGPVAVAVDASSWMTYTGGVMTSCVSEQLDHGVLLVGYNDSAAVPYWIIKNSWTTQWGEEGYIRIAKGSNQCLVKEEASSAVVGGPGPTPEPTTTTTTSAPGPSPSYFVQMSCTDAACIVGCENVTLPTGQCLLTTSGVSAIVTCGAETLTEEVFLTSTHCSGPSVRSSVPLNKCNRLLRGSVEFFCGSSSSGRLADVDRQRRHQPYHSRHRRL
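Detergent-containing run (0.01% Triton X-100) in acetate buffer pH 5.5 with 5 mM DTT: enzyme at 1.5 nM final, 15 min compound preincubation at room temperature, then 2 uM Z-FR-AMC substrate. Activity taken as 60 s fluorescence increase at 360/450 nm.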
NS1 function inh: inhibitors of influenza NS1 protein function | S. cerevisiae slowed by influenza A NS1, growth recovery by OD600 | Potency, µM (top dose mostly 46.1 µM), without a hit: at the top dose activity, positive = more growth | 270,000 tested, 0.4% active | AID 2326; active means well fitted rising curve with a large enough effect; inconclusive means small, poorly fitted or top-dose-only effect; inactive means no such curve, though single readings can be large or run the other way; further: nearly all actives have a fitted effect of over 50% in size
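Read-out: OD600 growth recovery of NS1-expressing budding yeast. Cells grown overnight at 30C in -URA glucose medium, washed, resuspended and diluted 1:100 in 2% galactose assay medium, pH 6.0. Same strain lacking NS1 served as positive control.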
Cruzain noTriton: blocks cruzain activity in detergent-free assay. purified cruzain, Z-FR-AMC fluorescence, no detergent. Potency, µM, for the others: max response, negative = inhibition, hits mostly inhibitors. 200,000 tested, 2.3% active;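 further: plate controls were enzyme without inhibitor for no effect and buffer without enzyme for full effect; nearly all actives have a fitted effect of over 40% in size; top concentration of the series not given in the record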
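Purified cruzain at 1.5 nM, pre-incubated 15 min with compound at room temperature in 100 mM sodium acetate pH 5.5, 5 mM DTT, 0.00005% Triton X-100. Reaction started with 2 uM Z-FR-AMC; AMC fluorescence increase over 60 s gives rate.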
LASV entry inh: blocks Lassa virus binding to or entry into cells | 300,000 tested, 1.2% active | Potency, µM (top dose mostly 37.9 µM), inactives show at the top dose activity change, negative = inhibition, usual class: inhibitors | Lassa virus pseudotype entry inhibition, cell reporter; control for the full effect not named in the record; active means well fitted inhibition curve with a large enough effect; inconclusive means small, poorly fitted or top-dose-only effect, or effect the other way; inactive means flat fitted curve, though single readings scatter; tested in HEK293 cells; further: on the % scale 0 is the no-effect control and ±100 the full control effect; nearly all actives have a fitted effect of over 50% in size; luciferase read-out
2A StopGo: lowers the luciferase signal of an FMDV 2A StopGo reporter; human cells with a luciferase reporter of 2A StopGo recoding; control for the full effect not named in the record; AID 1159524; Potency, µM (top dose mostly 57.9 µM), without a hit: at the top dose signal change, negative = less light; 410,000 tested, 1.2% active; active = well fitted falling curve with a large enough effect; inconclusive = small, poorly fitted or top-dose-only effect; inactive = no such curve, though single readings can be large or run the other way; tested in HEK293T cells; further: on the % scale 0 is the no-effect control and ±100 the full control effect; nearly all actives have a fitted effect of over 45% in size; luciferase light after 4 h
RE007 growth inh: less growth of the S. pombe RE007 Vpr strain; AID 651644; Potency, µM (highest dose often 92.2 µM), for the others: top-dose activity change, negative = less growth; S. pombe RE007 Vpr strain, BacTiter-Glo ATP luminescence, 24 h; control for the full effect not named in the record; 360,000 tested, 0.21% active; active = well fitted falling curve with a large enough effect; inconclusive = small, poorly fitted or top-dose-only effect; inactive = no such curve, though single readings can be large or run the other way;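 further: on the % scale 0 is the no-effect control and ±100 the full control effect; nearly all actives have a fitted effect of over 50% in size; the assay follows cell death caused by Vpr and the record does not say whether a fall means rescue or toxicity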
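Fission yeast RE007 carrying one integrated HIV-1 vpr copy, seeded at OD 0.01 in PMG+AL medium with 23 nL pinned compound. Grown 24 h at 30 degrees; viability read by BacTiter-Glo luminescence after 5 min.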
Marburg entry inh: Marburg virus entry inhibition; AID 540276; 300,000 tested, 1.8% active; Potency, µM (series often up to 37.8 µM), without a hit: at the highest dose activity change, negative = inhibition, most hits filed as inhibitors; Marburg virus pseudotyped entry inhibition, cell reporter; control for the full effect not named in the record; about a third of the inactives were read at about 46 µM; active = well fitted inhibition curve with a large enough effect; inconclusive = small, poorly fitted or top-dose-only effect, or effect the other way; inactive = flat fitted curve, though single readings scatter; tested in HEK293 cells; about a fifth of its hits are not listed in these tables; further: on the % scale 0 is the no-effect control and ±100 the full control effect; luciferase read-out
SARS PLP yeast: inhibitors of SARS-CoV papain-like protease in yeast; Potency, µM (highest dose often 32.9 µM), for inactives: at the highest dose activity, positive = growth rescue; S. cerevisiae expressing SARS-CoV PLpro, growth rescue; control for the full effect not named in the record; 330,000 tested, 0.19% active; active means well fitted rising curve with a large enough effect; inconclusive means small, poorly fitted or top-dose-only effect; inactive means no such curve, though single readings can be large or run the other way; further: 0% is about no effect; nearly all actives have a fitted effect of over 55% in size; growth read by luminescence after 48 h
Active calls of the source: *; ? = inconclusive; . = no result given; [ ] = remark or other dose. Unless noted, the call rests on the fitted dose curve; in most records, active means well fitted curve in the direction sought with a large enough effect; inconclusive means small, poorly fitted or top-dose-only effect, or another doubt; inactive means no such curve, though single readings can be large; an effect the other way counts as inactive or inconclusive. Potency means the concentration at half of the fitted maximal effect.

SMILES	Cruzain inh Det	NS1 function inh	Cruzain noTriton	LASV entry inh	2A StopGo	RE007 growth inh	Marburg entry inh	SARS PLP yeast
Cc1ccc(-n2nnc(-c3nc(-c4cccs4)no3)c2N)cc1C	0.3%	.	8%	19%[46.1 µM]	31%[activator]	.	.	.
Cc1ccc(N2C(=O)C(CN3CCOCC3)C2c2ccccc2)cc1 (configuration not stated)	.	.	.	-1%[46.1 µM]	-12%	?	?	-2%
COc1ccc(NC(=O)C2CCCN(S(=O)(=O)c3cccs3)C2)cc1OC (configuration not stated)	-1.8%	-33%	-5%	-23%	.	-1%	-22%	9%
O=C(CC(NC(=O)c1ccccc1)c1ccccc1)NCc1ccccc1 (configuration not stated)	.	.	.	-3%	11%	4%	-10%	-1%
Cc1oc(-c2ccccc2Cl)nc1CSc1nc2c(c(=O)[nH]1)CCC2	-2.2%	-15%	0%	-2%	22µM*	-5%	26%	17%
COCCNC(=O)CN(c1cccc(OC)c1)S(=O)(=O)c1ccc(C)cc1	-2.5%	0%	16%	-15%	14%	16%	3%	2%
O=c1[nH]nc(SCc2nnc(-c3ccc([N+](=O)[O-])cc3)o2)n1C1CCCCC1	.	-5%	.	-6%[46.1 µM]	-5%	-9%	-4%[46.1 µM]	1%
Cc1ccc(NC(=O)C(=O)Nc2ccc(C)cn2)nc1	.	.	.	-1%[46.1 µM]	19%	-8%	?	-8%
CCCCCC1CC(CC/C(C)=N/NC(N)=O)C(=O)O1 (configuration not stated)	.	0%	.	?	0%	3%	?	0%
Cc1ccc(-c2nc(N)sc2CC(=O)OCC(=O)NCC2CCCO2)cc1 (configuration not stated)	-4.1%	?	7%	5%	-5%	-8%	-1%	-21%
CC1=C(C(=O)OC(C)C)C(c2cccs2)C(C(=O)OC(C)C)=C(C)N1	-14%	-9%	?	?	?	-2%	?	17%
COC(=O)Cn1cnc2c(nnn2Cc2ccc(Cl)cc2)c1=O	6.0%	-22%	-5%	5%	1%	1%	12%	12%
O=C1OCC2=C1C(c1ccc3c(c1)OCO3)c1cc3c(cc1O2)OCO3 (configuration not stated)	.	.	.	?	0%	0%	-22%	.
O=C1CCCCC(=O)c2ccccc2N1	9.5%	1%	2%	-1%	-16%	-1%	29%	0%
O=C(CN(Cc1ccco1)S(=O)(=O)c1cccs1)Nc1ccccc1C(F)(F)F	3.4%	-4%	0%	4%	-4%	4%	?	6%
Cc1ccc(N(CC(O)CN2CCCCC2)S(=O)(=O)c2ccccc2[N+](=O)[O-])cc1 (configuration not stated)	.	-5%	.	-1%	-14%	-14%	?	0%
O=C1C(=O)N(CCS(=O)(=O)c2ccccc2)c2ccc(F)cc21	.	2%	.	.	-8%	4%	.	3%
O=C(Nc1nnc(S(=O)(=O)N2CCOCC2)s1)c1ccc(Cl)cc1	.	12%	.	.	-19%	-6%	.	-4%
COc1ccc(N2CCN(C(=O)COC(=O)CNC(=O)c3ccccc3)CC2)cc1	.	16%	.	6%	-14%	-19%	5%	5%
CSCCCNC(=S)N1CCN(S(=O)(=O)c2cccc(C(F)(F)F)c2)CC1	-4.5%	10%	1%	6%	7%	-19%	-14%	12%
CCn1c(=O)n(CC)c2cc(N3CCCC3)c(NC(=O)c3ccccc3C)cc21	.	-4%	.	.	?	-1%	.	8%
Cc1cc(C(=O)COC(=O)c2ccc[nH]c2=O)c(C)n1CCc1ccc(F)cc1	.	.	.	17%	1%	9%	-2%[46.1 µM]	0%
C[C@@H]1C(c2cccc(Cl)c2)=NN(c2ccccc2)[C@H]1C(=O)N1CCOC1=O	-16%	.	?	.	?	-3%	.	4%
Cc1cc2nc(Cl)c(Cl)nc2cc1C	.	-2%	.	.	-11%	-11%	.	0%
O=C1c2ccccc2C(=O)N1CC(=O)N1c2ccccc2Sc2ccccc21	0.3%	3%	-11%	?	-18%	3%	8%	2%

Exported with values under each structure: entries from further up.
Order of values – Cruzain inh Det	NS1 function inh	Cruzain noTriton	LASV entry inh	2A StopGo	RE007 growth inh	Marburg entry inh	SARS PLP yeast
- Cc1ccc(N(CC(O)CN2CCCCC2)S(=O)(=O)c2ccccc2[N+](=O)[O-])cc1 (configuration not stated)
→ .	-5%	.	-1%	-14%	-14%	?	0%
- O=C1C(=O)N(CCS(=O)(=O)c2ccccc2)c2ccc(F)cc21
→ .	2%	.	.	-8%	4%	.	3%
- O=C(Nc1nnc(S(=O)(=O)N2CCOCC2)s1)c1ccc(Cl)cc1
→ .	12%	.	.	-19%	-6%	.	-4%
- COc1ccc(N2CCN(C(=O)COC(=O)CNC(=O)c3ccccc3)CC2)cc1
→ .	16%	.	6%	-14%	-19%	5%	5%
- CSCCCNC(=S)N1CCN(S(=O)(=O)c2cccc(C(F)(F)F)c2)CC1
→ -4.5%	10%	1%	6%	7%	-19%	-14%	12%
- CCn1c(=O)n(CC)c2cc(N3CCCC3)c(NC(=O)c3ccccc3C)cc21
→ .	-4%	.	.	?	-1%	.	8%

Look-ups from the results shown:
Result for Cc1ccc(N2C(=O)C(CN3CCOCC3)C2c2ccccc2)cc1 (configuration not stated) in SARS PLP yeast: -2%
Result for Cc1ccc(NC(=O)C(=O)Nc2ccc(C)cn2)nc1 in LASV entry inh: -1%[46.1 µM]

Compounds from the list above that contain an aryl methoxy group (3):
SMILES	Cruzain inh Det	NS1 function inh	Cruzain noTriton	LASV entry inh	2A StopGo	RE007 growth inh	Marburg entry inh	SARS PLP yeast
COc1ccc(NC(=O)C2CCCN(S(=O)(=O)c3cccs3)C2)cc1OC (configuration not stated)	-1.8%	-33%	-5%	-23%	.	-1%	-22%	9%
COCCNC(=O)CN(c1cccc(OC)c1)S(=O)(=O)c1ccc(C)cc1	-2.5%	0%	16%	-15%	14%	16%	3%	2%
COc1ccc(N2CCN(C(=O)COC(=O)CNC(=O)c3ccccc3)CC2)cc1	.	16%	.	6%	-14%	-19%	5%	5%

The listing continues:
SMILES	Cruzain inh Det	NS1 function inh	Cruzain noTriton	LASV entry inh	2A StopGo	RE007 growth inh	Marburg entry inh	SARS PLP yeast
CN1CCN(c2oc(/C=C/c3ccc(F)cc3)nc2C#N)CC1	25µM*	.	25µM*	?	-12%	.	3%[46.1 µM]	.
Cc1ccc(-n2c(SCC(=O)NCc3cccs3)nnc2-c2ccoc2C)cc1	-5.4%	-53%	-4%	-28%	-25%	-1%	-14%	-1%
CC(C)C[C@H](NC(=O)Nc1ccccc1F)C(=O)O	3.5%	-9%	7%	11%	5%	21%	20%	-6%
COc1ccc(N=Nc2ccc(N)nc2N)cc1	.	-47%	.	?	42%	-10%	?	-4%
CC1CC(C)CN(C(=O)c2cc(-c3ccccn3)nc3ccccc23)C1 (configuration not stated)	2.3%	-17%	-1%	-6%	0%	-4%	7%	-5%
CCOc1ccccc1C(=O)NCC(=O)NCCSc1ccc(Br)cc1	.	.	.	?	?	-22%	4%	.
Cc1c(C(=O)N(Cc2ccccc2Cl)C2CCS(=O)(=O)C2)oc2ccccc12 (configuration not stated)	.	-10%	.	.	-4%	2%	.	1%
Cn1c(Cc2ccc(Cl)cc2)nnc1SCC(=O)NC1CC1	.	1%	.	-10%[46.1 µM]	-7%	-9%	21%[46.1 µM]	1%
Cc1nc2ccccn2c1CN(C)C(=O)C1CCC(=O)N(Cc2cccc(F)c2)C1 (configuration not stated)	.	16%	.	.	1%	8%	.	-1%
O=C(O)c1[nH]c2ccc(Cl)cc2c1CCN1C(=O)c2ccccc2C1=O	.	4%	.	.	-13%	-13%	.	1%
O=C(Nc1nc2ccsc2c(=O)s1)c1ccco1	.	-102%	.	?	60%[activator]	-21%	?	-8%
COc1cccc(C(=O)c2c[nH]c(C(=O)NCc3cccs3)c2)c1	2.1%	9%	-5%	?	4%	17%	-5%	-2%
COc1ccc(-c2cc(C(=O)N3CCC3)c3ccccc3n2)cc1OC	.	.	.	4%	5%	-1%	-17%	0%
CC1C2CC(C(CN(C)C)/C2=N/O)C1(C)C (configuration not stated)	-1.8%	14%	7%	-2%	3%	7%	5%	-3%
CN(C)c1ccc(P(=O)(OC2CCCCC2)C(Nc2ccccc2)c2cccnc2)cc1 (configuration not stated)	.	-1%	.	?	-13%	-14%	?	-5%
Cc1nnsc1C(=O)NC(=O)Nc1ccc(F)c(Cl)c1	.	-11%	.	?	-21%	-3%	-5%	2%
Cc1ccc(-c2cc(-c3ccccc3Cl)[nH]n2)c(O)c1	-7.5%	-88%	-12%	15%	100%[activator]	?	?	-10%
CC1(C)SC2c3ccccc3C(=O)N2[C@@H]1C(=O)NC1CCCC1 (some centres not stated)	.	15%	.	?	-10%	-4%	0%[46.1 µM]	-2%
O=C(OCC(=O)N1CCCc2ccccc21)c1ccccc1NCCO	.	.	.	-2%	4%	-4%	6%	1%
N/C(=N\OS(=O)(=O)c1ccccc1)c1ccccn1	-18%	0%	?	0%	17%	17%	?	10%
O=C(CN1C(=O)S/C(=C\c2ccc(F)cc2)C1=O)Nc1cccc(S(=O)(=O)NCc2ccco2)c1	.	?	.	-27%	26%	2%	6%[46.1 µM]	1%
CCc1oc(C(=O)OC)cc1CSC(=N)N	.	8%	.	-27%	-16%	-12%	?	-1%
CCc1nnc(NS(=O)(=O)c2ccc(NC(=O)/C=C/C(=O)O)cc2)s1	.	28%	.	2%[46.1 µM]	-7%	14%	12%[46.1 µM]	6%
CC(C)C(=O)Nc1ccc(C(=O)NCc2cccnc2)cc1	0.2%	-1%	-2%	2%	2%	-15%	-17%	?
